Mtb bLac sens: beta-lactam sensitization of Mtb H37Rv; 0.27% of 330,000 active; AID 434955; inhibition, % at 25 µM; M. tuberculosis H37Rv growth with meropenem, percent inhibition; hits of this screen are not shown here;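 active = about 74% or more and at least 40 points above the plate without the antibiotic, then above 30% in a dose series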;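 also: growth measured after seven days incubation then overnight dye step; 0% = bacteria only wells and 100% = bacteria with antibiotic; twin plates without the antibiotic show which effects depend on it; some results filed as inactive read as strong as hits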
YopH inh: YopH (Yersinia) phosphatase inhibition. fluorescence Ex485/Em525. inhibition, %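 (about 10 µM by stock and volumes)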. 0.16% of 140,000 active. AID 898;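 active = inhibition of 50% or more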;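 also: controls were vehicle for no effect and minimum signal wells for full effect; inactives centre near -20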
Arbovirus inh: antivirals against arbovirus infection | arbovirus infection cell-based antiviral screen | AID 1251 | inhibition, % at 10 µM | 0.37% of 200,000 active;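 active = inhibition from about 30%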;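 also: bluetongue infection of BSR cells; cell survival read as ATP light after 72 h; 0% = infected wells without compound and 100% = uninfected wells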
RecA splice inh: blocks M. tuberculosis RecA intein splicing | cell-free RecA intein splicing, fluorescence | inhibition, %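 (about 9 µM by stock and volumes)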 | 0.75% of 290,000 active | AID 2221; in the data active = inhibition above about 30%;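 also: 0% = vehicle wells and 100% = reference inhibitor control wells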
Target sequence (P9WHJ3 whole entry, looked up, canonical isoform): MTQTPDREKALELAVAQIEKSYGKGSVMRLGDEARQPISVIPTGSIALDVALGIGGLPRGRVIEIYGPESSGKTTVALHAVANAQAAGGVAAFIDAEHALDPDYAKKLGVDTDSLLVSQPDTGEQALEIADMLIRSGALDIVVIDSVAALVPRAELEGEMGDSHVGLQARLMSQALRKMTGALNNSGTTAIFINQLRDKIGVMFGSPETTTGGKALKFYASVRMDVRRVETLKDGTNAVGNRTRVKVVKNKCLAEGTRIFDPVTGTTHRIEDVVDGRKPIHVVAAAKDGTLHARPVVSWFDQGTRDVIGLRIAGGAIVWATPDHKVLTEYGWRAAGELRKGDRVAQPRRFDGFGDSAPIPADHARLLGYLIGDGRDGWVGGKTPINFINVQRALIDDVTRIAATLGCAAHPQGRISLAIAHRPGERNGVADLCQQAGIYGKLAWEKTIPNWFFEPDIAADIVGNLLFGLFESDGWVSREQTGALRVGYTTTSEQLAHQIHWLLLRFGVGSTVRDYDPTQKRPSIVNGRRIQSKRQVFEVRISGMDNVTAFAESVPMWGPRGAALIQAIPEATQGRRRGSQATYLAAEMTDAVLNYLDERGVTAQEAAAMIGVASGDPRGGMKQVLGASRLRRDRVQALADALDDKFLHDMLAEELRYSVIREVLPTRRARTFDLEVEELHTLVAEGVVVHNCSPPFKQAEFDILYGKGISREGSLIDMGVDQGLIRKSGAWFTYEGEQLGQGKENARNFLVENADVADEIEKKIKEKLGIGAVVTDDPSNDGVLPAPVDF
Mtb H37Rv: M. tuberculosis H37Rv growth inhibitors, H37Rv strain (AID 1626) | M. tuberculosis H37Rv growth inhibition; higher % means a stronger effect | inhibition, % at 10 µM, or IC50 in µM where a hit was titrated | 0.95% of 220,000 active;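 active = confirmed in a dose series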;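 also: bacteria incubated seven days before Alamar blue readout; 0% = bacteria only wells and 100% = bacteria with antibiotic wells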
Arbovirus inh repeat: also measured in Arbovirus inh; calls as there; inhibition, %; measured here: 10K subset replicate screen; many hits read low in the repeat;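 first of two repeat runs on a subset; 0% = infected and 100% = uninfected wells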
Starred values were filed as active, the others as inactive; · = no result given.

SMILES | Mtb bLac sens | YopH inh | Arbovirus inh | RecA splice inh | Mtb H37Rv | others
CCN(CC(=O)Nc1cccc(OC)c1)c1ncnc2sc(C)c(C)c12 | -2 | -21 | 8 | -14 | 5%
O=C(NNC(=S)Nc1ccccc1)c1cccc(Br)c1 | 12 | -28 | 5 | 2.0 | 5%
COC(=O)C(C)Sc1nc(NCc2ccccc2)nc(N(C)C)n1 (stereo not drawn) | -6 | · | 17 | -0.7 | 0%
Cc1ccc(-c2nnn(CC(=O)N(CC3CCCO3)C(C(=O)NC3CCCC3)c3ccc(O)cc3)n2)o1 (stereo not drawn) | 5 | · | 5 | · | -15%
COc1ccc(C(=O)NC2CCN(S(=O)(=O)c3ccc(F)cc3)CC2)cc1 | -6 | · | · | 1.5 | ·
Cc1ccccc1OCCn1c(CCNC(=O)C(C)C)nc2ccccc21 | 5 | -10 | 0 | -1.1 | 4%
O=C(c1ccc2c(=O)n3c(nc2c1)CCCCC3)N1CCCCC1 | 6 | · | · | 1.7 | ·
COc1ccc(NC(=O)CN(C)S(=O)(=O)c2ccccc2)c([N+](=O)[O-])c1 | -6 | -38 | 13 | -1.4 | 0%
COc1nn(CC(=O)N2N=C(C)CC2(O)C(F)F)cc1[N+](=O)[O-] (stereo not drawn) | -4 | -3 | 8 | -1.4 | 1%
O=C(Nc1ccncc1)c1sc2ccccc2c1Cl | 8 | · | 9 | 13 | 3%
COc1ccc(Nc2nc(NC(C)(C)C)nc(N3CCOCC3)n2)c(OC)c1 | 28 | · | 17 | · | 8%
COc1cc(Cl)c(C)cc1NC(=O)c1ccc(S(C)(=O)=O)cc1 | -8 | · | 2 | -2.0 | 3%
CC1=CC(C)(C)NC(=S)N1C(C)c1ccccc1 (stereo not drawn) | -2 | · | · | -1.0 | ·
O=C(Nc1nnc(CCS(=O)(=O)c2ccc3ccccc3c2)s1)c1cccs1 | 0 | -18 | 1 | 1.3 | 1%
O=C(Nc1ccc(C(=O)O)cc1)Nc1ccc([N+](=O)[O-])cc1 | 8 | · | · | -1.7 | ·
Cc1ccc2nc(N(CCCN(C)C)C(=O)c3ccc(S(=O)(=O)N4CCCCCC4)cc3)sc2c1 | 49 | · | · | 6.5 | ·
Cn1c(N/N=C\c2cccc(O)c2)cc(=O)n(C)c1=O | -6 | -13 | -6 | -4.0 | 7%
Cc1ccc(C)c(CSc2nc(-c3ccco3)nc3c2c(=O)n(C)c(=O)n3C)c1 | · | · | 3 | · | -4%
C(=C\c1ccccc1)/C=N/Nc1nc(N2CCOCC2)nc(N2CCOCC2)n1 | 6 | -4 | -6 | -3.0 | 5%
COC(=O)c1c(NC(=O)COC(=O)CNC(=O)C2CCCCC2)sc(C)c1C | 3 | -21 | -2 | 1.5 | -8%
Cc1ccc(N2CC(=O)N(NC(=O)c3sc4nc(C)cc(C)c4c3N)CC2=O)cc1 | -1 | · | · | -7.3 | 5%
Cc1ccc(C2=Nc3ccccc3NC(C)(c3ccc(C)o3)C2)o1 (stereo not drawn) | 9 | 24 | 11 | 3.2 | -1%
Cc1cc(C)cc(NC(=S)NC2CC3CCC(C2)N3Cc2ccco2)c1 (stereo not drawn) | 4 | -42 | 1 | -0.8 | ·
COc1ccc(Cl)cc1NC(=O)CN1CCN(S(=O)(=O)N2CCCCC2)CC1 | 0 | · | · | 1.2 | ·
COc1ccc(C(=O)N2CCC(N3CCN(c4ccccc4)CC3)CC2)cc1 | -12 | 2 | -1 | 0.2 | -5%
C=CCOc1cccc(CNn2cn[nH]c2=S)c1 | 2 | -7 | 0 | 3.1 | ·
Cc1[nH]c(=O)[nH]c(=O)c1NS(=O)(=O)c1ccccc1 | -5 | -11 | -1 | -0.6 | 3%
O=C(NCc1cccnc1)c1ccc(-c2ccccc2[N+](=O)[O-])o1 | 6 | -34 | 6 | 9.8 | 2%
O=C1OCCN1CCNCc1cn(-c2ccc(F)cc2)nc1-c1ccccc1Cl | -4 | · | -1 | 3.5 | -12%
COc1ccc(C2C3=C(CC(C)(C)CC3=O)N(CC(=O)O)C3=C2C(=O)CC(C)(C)C3)cc1OC | -3 | · | · | 0.4 | ·
Cc1nc(-c2ccccc2)sc1C1(C)CC(c2ccc([N+](=O)[O-])cc2)=NO1 (stereo not drawn) | 83 | · | · | -1.0 | -6%
CCC(=O)N1CCc2cc(S(=O)(=O)NC(Cc3ccccc3)C(=O)NC3CCCCC3)ccc21 (stereo not drawn) | · | -23 | -2 | 1.8 | 1%
O=C(NC1CCCCCCC1)c1ccc(Br)o1 | -5 | · | · | -1.2 | ·
Cn1c(=O)c2c(O)c([N+](=O)[O-])c(=O)n(C)c2n(C)c1=O | 40 | · | · | 0.3 | 4%
CC(C)NC(=O)NC(=O)COC(=O)c1ccc(F)cc1F | 5 | -40 | -2 | -3.1 | 4%
O=C(NCC1CCCO1)c1cccnc1Nc1ccccc1F (stereo not drawn) | 4 | -7 | -8 | · | -5%
CCC(=O)NCCc1nc2cc(NC(=O)c3cccc([N+](=O)[O-])c3)ccc2n1C | 7 | · | · | -2.1 | ·
CCN(CC)S(=O)(=O)c1cccc(-c2n[nH]c(=S)n2/N=C/c2ccc(OC)cc2)c1 | -3 | -42 | 14 | -2.2 | 8%
O=C1C2CCCCN2C(=O)N1CCCN1CCN(c2ccc(F)cc2)CC1 (stereo not drawn) | 3 | · | · | -0.6 | ·
Cc1ccc(/C=C(\NC(=O)c2ccccc2)C(=O)N2CCCC2C(=O)O)cc1 (stereo not drawn) | 5 | · | 2 | 0.2 | 0%
O=C(CN1CCN(C2CCCCC2)CC1)c1ccc2cc[nH]c2c1 | -7 | -44 | 1 | 1.1 | · | Arbovirus inh repeat=-1
Oc1cccc(CN2CCCCC2)c1 | 6 | -28 | 4 | -1.0 | 3%
CSc1nnc(Cn2c(=O)sc3ccccc32)n1-c1ccccc1C | -6 | -31 | -4 | -0.1 | -1% | Arbovirus inh repeat=0
CN1CCN(c2ccccc2NC(=O)c2ccc(-c3cccc([N+](=O)[O-])c3)o2)CC1 | 4 | 4 | 0 | -0.9 | 16%
CCN(CC)S(=O)(=O)c1ccc(/C=C/C(=O)OCC(=O)N(C(C)C)C(C)C)cc1 | 1 | · | 6 | 0.0 | -4%
Cc1cccc(NC(=O)CCn2c(=O)oc3ccccc32)c1 | -2 | · | · | -1.3 | ·
CC1CCN(C(=O)C2Cc3ccccc3CN2S(=O)(=O)c2ccc(F)cc2)CC1 (stereo not drawn) | -18 | 9 | 0 | 0.2 | 2%
O=C(c1ccco1)N1CCN(CCCCOc2cccc3ccccc23)CC1 | 11 | -12 | -17 | 7.2 | 26%
CCCCNCCCCOc1ccccc1 | 33 | 7 | 5 | -1.0 | -1%
Cc1ccc(-n2nc(C(=O)O)c(O)cc2=O)cc1 | -3 | · | 0 | -1.9 | -3%
CCCCNS(=O)(=O)c1ccc2nc(-c3cccnc3)cc(C(=O)NC(C)C)c2c1 | -3 | -28 | -1 | 0.1 | ·
CCCc1nc(NC(=O)c2ccccc2)nc(NC(=O)c2ccccc2)n1 | -5 | · | · | 1.2 | 3%
COc1c(F)c(F)c(C(=O)O)c(Nc2ccc(C)cc2C)c1F | -8 | · | 19 | 0.7 | -5%
S=c1[nH]cnc2scc(-c3ccc(Br)cc3)c12 | · | · | -11 | -1.4 | >100µM*
CC(Sc1cccc[n+]1[O-])C(=O)Nc1ccc(Oc2ccccc2)cc1 (stereo not drawn) | 21 | · | -8 | -0.6 | -13%
COc1cccc(/C=N/c2sc(Cc3ccccc3)c(C)c2C(N)=O)c1O | 4 | -18 | 10 | -5.5 | -2%
COc1ccccc1CNC(=O)COC(=O)c1ccc(C)c(S(=O)(=O)N2CCCCC2)c1 | -4 | · | · | 4.7 | ·
COC(=O)c1cnc2c(c(C)nn2C)c1OC | -7 | · | · | -0.2 | 3%
O=C(CCCN1C(=O)c2cccc3cccc(c23)C1=O)NCc1ccco1 | 1 | · | -11 | -1.9 | 1%
COc1ccc(C2NC3=C(CCC3)C3(C#N)C(OC)(OC)N=C(N)C23C#N)cc1 (stereo not drawn) | -4 | -25 | -3 | -2.6 | -9%

Overlap with the part before: two entries, followed by the next part.
SMILES | Mtb bLac sens | YopH inh | Arbovirus inh | RecA splice inh | Mtb H37Rv | others
O=C(CCCN1C(=O)c2cccc3cccc(c23)C1=O)NCc1ccco1 | 1 | · | -11 | -1.9 | 1%
COc1ccc(C2NC3=C(CCC3)C3(C#N)C(OC)(OC)N=C(N)C23C#N)cc1 (stereo not drawn) | -4 | -25 | -3 | -2.6 | -9%
C=CCn1c(C)cc(C(=O)COC(=O)c2ccc3c(c2)NC(=O)CS3)c1C | -2 | -9 | 4 | 5.4 | 4%
O=[N+]([O-])c1cc(Cl)c(O)c2ncccc12 | · | · | -21 | 6.2 | 16µM*
Cc1cc(C)nc(NS(=O)(=O)c2ccc(NC(=O)c3ccc(S(=O)(=O)N4CCOCC4)cc3)cc2)n1 | -5 | -41 | 3 | -0.8 | -9%
CSc1nnc(C)c(=O)n1COC(=O)c1ccc(S(=O)(=O)N(C)C)cc1 | 3 | -27 | 1 | -0.7 | -3%
Cn1cccc1/C=N/NC(=O)c1sc2ccccc2c1Cl | 84 | -32 | -22 | 0.1 | ·
COCCOC(=O)c1c(C)n(C)c2ccc(OC(=O)N3CCOCC3)cc12 | -7 | -23 | 16 | -2.8 | -5%
Cc1ccc(C(O)CN2C3=NCCCN3c3ccccc32)cc1 (stereo not drawn) | -3 | -5 | -5 | · | -2%
COc1cc(C(C)=O)ccc1OCC(=O)N1CCc2ccccc2C1 | -3 | · | · | 0.7 | ·
CCNC(=O)CSC1=N/C(=C\c2ccc(O)c(OCC)c2)C(=O)N1c1ccc(OC(F)F)cc1 | 0 | · | · | 4.9 | ·
CCc1ccccc1S(=O)(=O)Cc1ccc(C(=O)NCC2CCCO2)o1 (stereo not drawn) | 2 | -5 | 6 | -0.2 | -6%
COc1ccc(NS(=O)(=O)c2ccc(S(=O)(=O)N3CCCC3)cc2)cc1 | -8 | -21 | 10 | -1.2 | 5%
CC(=O)Nc1cc2c(cc1NC(=O)c1cnccn1)OCCO2 | -10 | -2 | -2 | -1.2 | -3%
Cc1ccc2cc(COC(=O)c3ccncc3)c(=O)[nH]c2c1 | -5 | -48 | 0 | -0.4 | 6%
Cc1nc(SCC(=O)Nc2nc3ccccc3s2)c(C#N)c(C)c1C | 0 | -18 | -6 | 1.4 | -5%
COC(=O)C1=C(C)N(Cc2cccnc2)C(=O)/C1=C\c1sccc1C | 5 | · | -7 | 0.1 | 2%
COc1ccc(C(=O)/C=C\N2CCOCC2)cc1 | -11 | -32 | 2 | -3.2 | 0%
Cc1ccc(NC(=O)CCc2c(C)nn(-c3ccc(N4CCCCC4)nn3)c2C)cc1F | 0 | · | · | 2.2 | ·
CC1(C)Cc2ccccc2C(=NCCCCCC(=O)O)N1 | · | -13 | 9 | -0.5 | -8%
O=C(Nc1ccc(-c2ccccc2)cc1)c1ccco1 | 1 | · | 3 | -2.7 | 6%
COC(=O)CCC(=O)Nc1nnc(C(F)(F)F)s1 | -3 | -35 | 5 | 0.2 | -5%
O=C(CSc1nnc(-c2ccco2)o1)c1ccccc1 | 3 | -50 | 6 | 6.7 | -2%
CC12CC3CC(C)(C1)CC(C(=O)NCc1ccncc1)(C3)C2 | -1 | · | · | 0.1 | ·
Cn1nc(C(=O)OCc2ccc(Br)cc2F)c2ccccc2c1=O | -2 | · | -2 | 4.6 | 4%
Cc1nc2cc(NCc3cc([N+](=O)[O-])ccc3O)ccc2n1Cc1ccccc1 | -1 | · | -5 | -0.4 | 0%
c1ccc(Cc2cc(-c3ccccc3)on2)cc1 | 7 | -19 | -14 | -0.4 | -1%
Cc1c(Br)c([N+](=O)[O-])nn1CC(=O)NCc1ccco1 | -2 | -35 | 9 | -4.1 | 4%
CC(C)CCNC(=O)Cn1c(=O)oc2cc(S(=O)(=O)N3CCc4ccccc43)ccc21 | 0 | -38 | 30 | 3.4 | -4% | Arbovirus inh repeat=16
CCOC(CCn1c(SCC(=O)NC2CCCC2)nc2ccccc2c1=O)OCC | -4 | · | · | -0.2 | ·

Reprinted at random: 5 entries already listed.
SMILES | Mtb bLac sens | YopH inh | Arbovirus inh | RecA splice inh | Mtb H37Rv | others
c1ccc(Cc2cc(-c3ccccc3)on2)cc1 | 7 | -19 | -14 | -0.4 | -1%
CC1(C)Cc2ccccc2C(=NCCCCCC(=O)O)N1 | · | -13 | 9 | -0.5 | -8%
O=C(CSc1nnc(-c2ccco2)o1)c1ccccc1 | 3 | -50 | 6 | 6.7 | -2%
Cc1ccc(NC(=O)CCc2c(C)nn(-c3ccc(N4CCCCC4)nn3)c2C)cc1F | 0 | · | · | 2.2 | ·
COc1ccc(C(=O)/C=C\N2CCOCC2)cc1 | -11 | -32 | 2 | -3.2 | 0%

Source: PubChem (several laboratories)

Not all compounds are listed; rates above refer to the full screens.
